PINK1 expr mod: modulators of PINK1 expression | PINK1 immunofluorescence, high-content cytometry, 24 h | AID 624263 | Potency, µM (top dose mostly 76.6 µM), without a hit: top-dose activation (PINK1 increase), most hits filed as activators | 410,000 compounds, 0.2% hits; active = well fitted activation curve with a large enough effect; inconclusive = small, poorly fitted or top-dose-only effect; inactive = flat fitted curve, though single readings scatter; cell line not stated here;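 note: potency is the fitted concentration of half-maximal effect; % of control where 0% means no effect; nearly all actives have a fitted effect of over 65% in size; a mitochondrial uncoupler was the plate control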
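PINK1 protein, normally rapidly degraded, was detected by immunofluorescence after 24 hour compound treatment of a stable cell line. Titration data (5 concentrations) came from laser-scanning cytometry, with CCCP-treated wells as controls.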
Six1-Eya2 blk: inhibitors of human Six1/Eya2 interaction | Q15475+O00167 | 360,000 compounds, 0.56% hits | activity change, % (test concentration not listed) | AlphaScreen GST-Six1/His-Eya2 binding, biochemical; active compounds read low; control for the full effect not named in the record; in the data active = activity change below about -65%; inconclusive = about -30% to -65%; inactive = above about -30%; note: % is set by controls: 0 for no effect and ±100 for the full control effect
Target sequence (O00167 whole entry, looked up): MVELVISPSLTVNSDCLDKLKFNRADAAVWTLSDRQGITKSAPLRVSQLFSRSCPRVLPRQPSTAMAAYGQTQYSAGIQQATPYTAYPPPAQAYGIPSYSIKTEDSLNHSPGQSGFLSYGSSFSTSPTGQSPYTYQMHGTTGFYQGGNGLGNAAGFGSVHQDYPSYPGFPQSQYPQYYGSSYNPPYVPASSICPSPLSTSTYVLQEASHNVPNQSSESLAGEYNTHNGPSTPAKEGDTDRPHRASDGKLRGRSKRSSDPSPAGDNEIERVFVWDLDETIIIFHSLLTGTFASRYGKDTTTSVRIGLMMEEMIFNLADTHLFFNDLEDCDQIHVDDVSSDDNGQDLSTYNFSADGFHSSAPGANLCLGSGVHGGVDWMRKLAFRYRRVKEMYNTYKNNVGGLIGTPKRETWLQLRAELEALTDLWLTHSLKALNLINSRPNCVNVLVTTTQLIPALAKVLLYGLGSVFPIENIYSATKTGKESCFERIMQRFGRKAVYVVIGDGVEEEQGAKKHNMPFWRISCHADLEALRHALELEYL
Target sequence (Q15475 whole entry, looked up): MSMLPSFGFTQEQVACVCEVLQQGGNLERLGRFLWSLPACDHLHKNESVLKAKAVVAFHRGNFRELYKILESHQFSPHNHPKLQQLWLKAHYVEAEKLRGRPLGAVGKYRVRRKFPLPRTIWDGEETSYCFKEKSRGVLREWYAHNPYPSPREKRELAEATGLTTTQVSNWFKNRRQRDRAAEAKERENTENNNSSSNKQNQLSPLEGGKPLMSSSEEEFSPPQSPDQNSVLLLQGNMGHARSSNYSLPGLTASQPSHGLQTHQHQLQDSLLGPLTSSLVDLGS
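GST-Six1 + His-Eya2 (5X stock: 250/500 nM); Tris pH 8.0, 300 mM NaCl, 0.05% BSA, 0.02% Tween 20; GSH donor/Ni acceptor beads; 1 h 37 °C dark; AlphaScreen readout.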
TRPML1 inh: inhibitors of human TRPML1 channel | Q9GZU1 | TRPML1-inducible cells, Ca2+ dye fluorescence, FDSS; active compounds read low; inhibition of EC80 agonist-evoked calcium signal | activity change, negative = inhibition, % (test concentration not listed) | 390,000 compounds, 0.02% hits | AID 624415; in the data active means activity change below about -50%; inconclusive means about -30% to -50%; inactive means above about -30%;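 note: stimulus is agonist 54-4 at its EC80 concentration; % is set by controls: 0 for no effect and ±100 for the full control effect; compound concentration not given in the record; the text of the record puts the active cut at -80%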
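TRPML1-DL cells, Tet-induced overnight (~16 h, 37 °C) at 1,500 cells/well, were loaded with Ca8 no-wash dye plus quencher for 45-90 min at room temperature. Compounds were pinned during FDSS kinetic reading; agonist 54-4 at EC80 (4 uM final) then added.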
TRPML1 agonist: activates the human TRPML1 channel | 410,000 compounds, 0.12% hits | activation, % (no concentration beside the values) | TRPML1-expressing cells, Ca2+ dye fluorescence, FDSS; host cell line not named in the record; reference of the full effect not given here | Q9GZU1; in the data active = activation above about 50%; inconclusive = about 30% to 50%; inactive = below about 30%; note: 0% is about no effect; the text of the record puts the active cut at 80%
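Kinetic FDSS Ca2+ read in Tet-induced TRPML1-DL cells (ABD Ca8 dye plus quencher, 45-90 min RT loading): baseline, then compound, then 110 s agonist window; EC80 agonist 54-4 at 4uM final added afterwards for a 110 s antagonist window.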
CtBP-E1A blk: CtBP/E1A binding inhibition. activity change, % (no concentration beside the values). AlphaScreen GST-E1A/His-CtBP binding, 1536-well; active compounds read low; control for the full effect not named in the record. 340,000 compounds, 0.49% hits; in the data active means activity change below about -65%; inconclusive means about -30% to -65%; inactive means above about -30%; note: % is set by controls: 0 for no effect and ±100 for the full control effect
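Protein mix (5X: 125 nM each GST-E1A, His-CtBP) was incubated with pinned compound 2 h at 37 deg C in dark, in 50 mM Tris pH 8.0 buffer with 300 mM NaCl. Glutathione donor and nickel acceptor beads followed; AlphaScreen signal read after 1 h.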
D2 agonist: human D2 receptor agonism in beta-arrestin assay; DiscoveRx PathHunter D2 beta-arrestin, luminescence, 90 min; 100% = 57 uM dopamine signal; activation, % (test concentration not listed); 360,000 compounds, 0.084% hits; AID 624465; in the data active = activation above about 40%; inconclusive = about 15% to 40%; inactive = below about 15%; note: compound concentration not given in the record; the text of the record calls up to 30% inactive
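DiscoveRx PathHunter D2 beta-arrestin cells (2,100/well) attached overnight, then compound-stimulated 90 min at 37 C in HBSS/10 mM HEPES/0.1% Tween-20 buffer; beta-galactosidase complementation read by luminescence after 1 h at ambient temperature. Dopamine 57 uM final (EC100) as control.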
An asterisk follows results filed as active; ? = inconclusive; · = no result given; [ ] = dose if it differs, or a comment. An unsorted share of the library, and some 1% of all compounds hit somewhere here.

SMILES	PINK1 expr mod	Six1-Eya2 blk	TRPML1 inh	TRPML1 agonist	CtBP-E1A blk	D2 agonist
O=C(Nc1ccccc1)Nc1nnc(Cc2ccccc2F)s1	0.9%	2	-6	0.7	5	5.5
CCOC(=O)C(=CNc1ccc(Cl)cn1)C(=O)OCC	2.5%	4	10	1.7	-1	8.2
O=C(Nc1ccccc1F)c1nc[nH]c1C(=O)NCc1ccccc1	12%	-6	·	·	-5	-0.2
O=C(CSc1nc2c([nH]c3ccccc32)c(=O)n1-c1ccc(Cl)cc1)N1CCOCC1	-2.2%	·	40	0.5	·	·
Cc1ccc2c(c1)nc(SCC(O)c1ccc(Br)cc1)n2C (configuration not stated)	-1.0%	·	1	-0.5	·	·
COc1ccc(C(=O)CC(=O)c2ccc(C)cc2)c(O)c1	4.5%	-5	6	0.3	-1	-3.4
C=CCn1cc(-c2ccccc2)cc(C#N)c1=O	-0.8%	7	11	1.3	3	-2.5
CCOC(=O)CCNC(=O)N1CCCC(C(=O)c2ccccc2SC)C1 (configuration not stated)	-0.5%	-4	-6	0.7	·	-11
Cc1ccc(S(=O)(=O)Nc2ccccc2CNc2ccccn2)cc1	0.7%	1	-3	0.4	-10	-1.6
Cc1nn(C(C)C)c(C)c1CN1CCC(C(=O)Nc2cccc(-c3cccc(F)c3)c2)CC1	0.3%	-8	6	0.9	-4	2.3
CCCN(CCC)S(=O)(=O)c1ccc(C(=O)NCc2n[nH]c(=S)n2-c2ccc(Cl)c(Cl)c2)cc1	0.0%	-19	-3	-0.2	·	-13
CCOc1ccc2nc(NC(=O)CCC(=O)c3cccs3)sc2c1	7.8%	-2	1	-0.2	2	0.2
COc1cc(/C=C2\SC(=O)N(CCNC(=O)c3c(C)noc3C)C2=O)cc(OC)c1OC	3.9%	-8	1	2.1	?	5.0
Cc1nnc(C)c2c(C)n(C(C)c3ccccc3)c(C)c12 (configuration not stated)	-1.2%	-7	-6	-0.7	8	-5.1
Cc1noc2ncnc(N3CCCC(C(=O)Nc4cc(F)ccc4F)C3)c12 (configuration not stated)	1.0%	·	21	0.4	·	·
COc1cccc(/C=C2\NC(=O)NC2=O)c1O	-0.5%	0	5	0.0	0	-8.0
N#Cc1c(-n2ncnc2-c2cccc(Cl)c2)sc2c1CCCCC2	1.5%	·	20	0.0	·	·
COc1cc(S(=O)(=O)N2CCOCC2)ccc1N	-0.1%	2	19	-0.3	-8	-0.9
CC1CCc2c(C(=O)Oc3cccc(-n4cnnn4)c3)csc2C1 (configuration not stated)	0.8%[38.3 µM]	-2	4	1.3	2	-0.8
Cc1ccc(-c2cn3cccnc3n2)cc1NC(=O)Nc1ccc(F)cc1	-0.8%	·	5	3.6	·	·
Cn1c(CNC(=O)c2ccc3c(c2)OCO3)nnc1SCC(=O)Nc1ccccc1Cl	0.7%	-21	51	-0.6	-5	0.7
CS(=O)(=O)N1CCC(C(=O)NCc2ccc(Cl)cc2)CC1	0.1%	3	·	·	5	2.0
Cc1ccc(NC(=O)c2sc3nc(-c4cc5ccccc5oc4=O)[nH]c(=O)c3c2C)c(C)c1	?	·	-15	-0.4	·	·
COc1ccc(S(=O)(=O)Oc2cc(C(=S)N3CCOCC3)ccc2OC)cc1	1.5%	-2	14	0.7	-2	-3.9
O=C(O)C1=NOC(CNC(=O)c2ccccc2Cl)C1 (configuration not stated)	2.7%	10	-3	0.2	9	-6.3
CCN1CCC(Nc2ccnc3cc(Cl)ccc23)CC1	0.0%	4	4	0.2	-2	0.7
O=C(CCc1ccc(S(=O)(=O)N2CCOCC2)cc1)OCC(=O)c1ccccc1	-0.9%	5	5	-0.4	4	2.0
COc1ccc(N(Cc2cccs2)C(=O)c2ccc(OC)c(Cl)c2)cc1	0.8%	·	26	3.7	·	·
CN(C)c1nc(N/N=C\c2ccc(Cl)c([N+](=O)[O-])c2)nc(Nc2ccc(F)cc2)n1	?	-16	12	1.3	-8	-2.7
Cc1cc(-c2ccccc2)nc(N(C)NC(=O)c2ccc(Cl)cc2)c1S(C)(=O)=O	2.7%	-1	5	0.9	0	-1.3
CCOc1ccc(C(=O)NC(C(=O)NCCc2ccc(OC(F)F)cc2)C(C)C)cc1 (configuration not stated)	3.8%	2	17	0.7	2	-3.7
COc1ccc(S(=O)(=O)N2CCCCC2)cc1NC(=O)COc1ccccc1	0.5%	-16	12	0.2	-1	-1.5
COc1cc(C(C)=O)ccc1OCC(=O)Nc1ccccc1N1CCCC1	0.6%	?	19	2.2	-18	0.3
O=C(NCc1cccc(Cl)c1)c1cccn1-c1nnc(N2CCCC2)s1	-1.8%	·	-19	1.9	·	·
C=CCNc1nc(Cl)nc(Nc2ccccc2)n1	-0.8%	-2	·	·	·	-2.2
COc1cc(OC)c(NC(=O)N2CC3CCCN3c3ccccc32)cc1Cl (configuration not stated)	-1.2%	·	39	-0.2	·	·

An excerpt from above in order of formula weight, high to low:
SMILES	PINK1 expr mod	Six1-Eya2 blk	TRPML1 inh	TRPML1 agonist	CtBP-E1A blk	D2 agonist
O=C(CCc1ccc(S(=O)(=O)N2CCOCC2)cc1)OCC(=O)c1ccccc1	-0.9%	5	5	-0.4	4	2.0
COc1ccc(S(=O)(=O)N2CCCCC2)cc1NC(=O)COc1ccccc1	0.5%	-16	12	0.2	-1	-1.5
CCN1CCC(Nc2ccnc3cc(Cl)ccc23)CC1	0.0%	4	4	0.2	-2	0.7

The list continues.
SMILES	PINK1 expr mod	Six1-Eya2 blk	TRPML1 inh	TRPML1 agonist	CtBP-E1A blk	D2 agonist
COc1ccc(-c2nc(-c3ccccc3)[nH]c(=O)c2C#N)cc1	-0.2%	2	-18	0.3	-11	-0.2
O=C(CSc1nc2ccccc2nc1Cc1ccccc1)Nc1ccccc1C(F)(F)F	8.2%	·	-3	0.1	·	·
COc1ccccc1CC(=O)NCCc1ccc(S(N)(=O)=O)cc1	-0.2%	11	-10	-0.1	-2	-1.1
Cc1ccc(NC(=O)c2ncn(-c3ccccc3)n2)cc1Cl	-0.6%	·	15	2.5	·	·
CCOC1=C2[C@@H](CN(S(=O)(=O)c3ccc(C)cc3)[C@H]2c2ccccc2F)[C@H]2C(=O)NC(=O)[C@H]2C1	-0.9%	1	·	-0.5	2	-2.4
CC(Oc1ccc(F)cc1)C(=O)N(Cc1ccccc1)c1c(N)n(Cc2ccccc2)c(=O)[nH]c1=O (configuration not stated)	4.0%	4	-10	0.4	8	5.5
CCN(CC)C(=O)CSc1nnc2cc(C)c3ccccc3n12	1.7%	-7	5	1.4	13	-1.7
COc1ccc(N(CC(=O)Nc2cccc(SC)c2)S(C)(=O)=O)cc1	-0.3%	-9	-25	-1.7	-1	-1.0
CCN(C(=O)CSc1nnc(-c2ccccc2C)n1C)c1c(N)n(Cc2ccccc2)c(=O)[nH]c1=O	1.2%	0	-12	1.4	0	-2.9
O=C(NNC(=O)c1ccc(Br)s1)c1cccc(S(=O)(=O)N2CCCC2)c1	-0.8%	-21	2	-0.2	·	-7.3
COc1cccc(C2C(C(=O)NCc3ccccc3)=C(C)Nc3ncnn32)c1 (configuration not stated)	-5.7%[38.3 µM]	5	2	-0.5	6	-1.0
Cc1ccc2c(c1)C1CN(C)CCC1N2S(=O)(=O)c1cc(C(F)(F)F)ccc1Cl (configuration not stated)	11%	-8	-14	0.5	-12	0.4
COC(=O)[C@H](Cc1ccccc1)NC(=O)[C@@H]1C[C@H]1[C@@H](NC(=O)OCc1ccccc1)c1ccccc1	5.3%	-6	2	-0.4	-9	-4.3
CS(=O)(=O)N1CCc2cc(S(=O)(=O)NCCNS(=O)(=O)c3ccc4c(c3)CCN4S(C)(=O)=O)ccc21	0.6%	-4	-5	3.8	10	-1.4
COc1ccc(CCNC(=O)c2c(C)nn(-c3ccccc3)c2Cl)cc1	-1.6%	-2	1	1.2	7	-0.8
Cc1cc(C)cc(Cn2cc(CN3CC(N4CCN(CCO)CC4)CS3(=O)=O)nn2)c1 (configuration not stated)	-0.9%	4	·	-0.3	1	·
O=C1CCCc2c1cnc1ncnn21	-0.7%	5	-8	-0.3	2	5.6
Cc1ccc(Cl)cc1NC(=O)C1CC1c1ccccc1 (configuration not stated)	4.6%	8	6	1.2	11	4.4
Cc1ccc(C2NC(=O)c3ccccc3N2)c(C)c1 (configuration not stated)	6.1%	-1	3	1.1	5	-7.3
COc1ccc2oc(C(=O)OCC(=O)Nc3ccc(C(=O)N(C)C)cc3)c(C)c2c1	2.1%	10	-7	0.7	2	-1.3
CCCCN(C)C(=O)CN1C(=O)c2cccnc2Oc2ccc(Cl)cc21	-0.5%	·	8	1.1	·	·
CC(NC(=O)c1ccccc1Cl)c1nnc(SCC(=O)Nc2ccc(C(=O)O)cc2)n1C (configuration not stated)	0.4%	4	13	0.1	0	0.2
C=CCNC(=O)c1cccc(OC2CCN(CC(C)(C)C)CC2)c1	-0.8%	1	·	·	·	13
COc1ccc(CSC(=S)NNc2ccccc2)cc1	?	-10	1	-0.1	-1	?
CC1Cc2ccccc2N1CC(=O)NC(=O)NC1CCCCC1 (configuration not stated)	3.1%	-21	19	4.4	-5	3.0
O=C(Cn1cnc2scc(-c3ccc(Br)cc3)c2c1=O)N1CCOCC1	0.2%	11	-4	0.4	7	-4.0
CCS(=O)(=O)c1cc([N+](=O)[O-])c(Sc2ccccc2NC(C)=O)s1	0.0%	6	19	0.1	8	9.1
CC(C)(Oc1ccc(Cl)cc1)C(=O)NC1CCCCC1	6.4%	10	11	-0.4	10	2.5
Cc1ccccc1Nc1nc(N)nc(CSc2nnnn2C)n1	3.2%	1	58	0.3	-6	-8.8
COc1ccc(NC(=O)CSc2nc3ccsc3c(=O)n2CCC(=O)O)cc1	-0.4%	-3	-3	0.0	4	-2.7
CCNC(=S)Nc1ccc(NC(=O)c2ccccc2O)cc1	0.7%	4	5	-0.2	1	-8.0
CCC(C(=O)Nc1nnc(-c2ccco2)s1)c1ccccc1 (configuration not stated)	14%	10	?	0.8	4	-1.4
Cc1cc2nnc(SC(C)C)n2c2ccccc12	-1.2%	-10	1	2.1	-4	0.9
COc1ccc(-c2nn(CC(=O)NCCc3ccccc3)c(=S)n2C)cc1	5.0%	-3	0	-0.3	-4	-0.5
O=C(C1=C[C@H](c2coc3ccccc3c2=O)C[C@H](OCc2ccc(CO)cc2)O1)N1CCOCC1	-1.3%	3	-10	-0.2	-1	1.5
CCCCN1CC(N2CCN(C)CC2)CS1(=O)=O (configuration not stated)	1.4%	-3	-9	-0.1	1	-5.5
Oc1ccc2ccc3cccc[n+]3c2c1	-0.7%	-3	-8	?	-1	-2.0
COc1ccc(N2CCN(C(CNC(=O)C(=O)NCc3ccc4c(c3)OCO4)c3ccco3)CC2)cc1 (configuration not stated)	6.2%	-2	·	·	6	2.2

High-throughput results from PubChem.
